# High-throughput results: PubChem BioAssay, ICCB-Longwood Screening Facility, Harvard Medical School
# Ba CapD inh: Bacillus anthracis CapD inhibitors, primary screen, biochemical, fluorescence intensity. CapD gamma-glutamyltranspeptidase (Bacillus anthracis Ames Ancestor). z-score (concentration not given with the values). actives 0.23% (n = 140,000). AID 492967, 2010. purified CapD enzyme, fluorescence intensity read-out; active compounds read low; some hits fall short of the stated cut;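 active means z-score under -4 in either of two replicates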;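 further: stock transfer was 100 nL into about 40 µL; score is relative to mean and spread of the plate; one replicate is shown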
# AID504770: growth inhibition of E. coli YBA685, primary screen, V. cholerae RctB inhibitors. E. coli YBA685 rctB-dependent plasmid, OD600 growth, 3 h; active compounds read low. actives 0.27% (n = 130,000). z-score (test concentration not listed);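 active means z-score under -2 on both plates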;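 further: wells of about 30 µL received 100 nL stock; score is relative to mean and SD of the test wells; the first replicate is given; strong numbers were not always called active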
# * marks the source's active call; other numbers are inactive results; · = no result given; & = joins results of further samples.
# Preview (5 entries):
SMILES	AID504770	Ba CapD inh
CCSCC(=O)Nc1ccc(F)cc1	1.6	0.43
CO[C@H]1CC(O[C@@H]2/C(C)=C/C[C@@H]3C[C@@H](C[C@]4(CC[C@H](C)[C@@H](C5CCCCC5)O4)O3)OC(=O)[C@@H]3C=C(C)/C(=N/O)[C@H]4OC/C(=C\C=C\[C@@H]2C)[C@]43O)O[C@@H](C)C1O (some centres not stated)	0.35	·
COC(=O)c1sccc1-c1ccc(CN2CCCc3cc(OC)ccc32)o1	1.4	-1.6
N#Cc1c(C(F)(F)F)cc(-c2ccccc2)nc1-c1ccc(Cl)cc1	·	-0.13
O=C(CSc1ncnc2sccc12)NC(=O)CN1CCCC1=O	-1.6	·

# All compounds of this part, repeating the preview:
SMILES	AID504770	Ba CapD inh
CCSCC(=O)Nc1ccc(F)cc1	1.6	0.43
CO[C@H]1CC(O[C@@H]2/C(C)=C/C[C@@H]3C[C@@H](C[C@]4(CC[C@H](C)[C@@H](C5CCCCC5)O4)O3)OC(=O)[C@@H]3C=C(C)/C(=N/O)[C@H]4OC/C(=C\C=C\[C@@H]2C)[C@]43O)O[C@@H](C)C1O (some centres not stated)	0.35	·
COC(=O)c1sccc1-c1ccc(CN2CCCc3cc(OC)ccc32)o1	1.4	-1.6
N#Cc1c(C(F)(F)F)cc(-c2ccccc2)nc1-c1ccc(Cl)cc1	·	-0.13
O=C(CSc1ncnc2sccc12)NC(=O)CN1CCCC1=O	-1.6	·
Cc1nnc(C(=O)c2ccccc2)o1	-0.8	-0.03
NN1C(=O)/C(=C\c2ccccc2)SC1=S	-0.85	0.1
CCOc1ccc2sc(NC(=O)NC(C)N3C(=O)C4C5C=CC(C5)C4C3=O)nc2c1 (configuration not stated)	-0.25	0.02
CC[n+]1oc(C)c2ccccc21	-0.25	0.49
COc1ccc(-c2csc3nccn23)cc1	-0.7	1.7
CC1(C)CC(=O)C=C(Nc2sc3c(c2C(N)=O)CCCC3)C1	-1	-2
O=C(NCCSCCOC(=O)N1CCCN(c2ncc(C(F)(F)F)cc2Cl)CC1)c1sc2ccccc2c1Cl	·	-0.51
COC(=O)C1=C(C(=O)OC)SC(=C2C(=S)C(C)(C)N(C(=O)CN3C(=O)C4CCCCC4C3=O)c3cc(C)ccc32)S1 (configuration not stated)	·	-0.05
Cc1noc(C)c1C(=O)Nc1ccc(S(=O)(=O)N2CCCCC2)cc1	-1.1	·
CCCC1=NN(c2ccccc2)C(=O)/C1=C/c1ccc2c(c1)OCO2	-0.45	-0.4
Nc1cc(Cl)c(-n2cccc2)cc1Cl	·	-0.81
COC(=O)CC1CC(C)(C)NC(C)(C)C1	0.4	0.075
CC(C)C(=O)Nc1nnc(-c2ccccc2)o1	0	·
Cc1ccc(S(=O)(=O)N=S(C)(=O)c2ccc(C(F)(F)F)cn2)cc1 (configuration not stated)	-0.25	-0.21
O=C(O)/C=C/C(=O)N1CCCCC1	-0.9	·
Oc1ccc(Cl)cc1C=Nc1ccc2cn[nH]c2c1	1.3	1.1
COc1ccc(Cl)cc1NC(=S)N1CCCCC1CO (configuration not stated)	-0.5	0.21
N#C/C(=C\c1cn(CCOc2ccccc2F)c2ccccc12)C(=O)NC1CC1	-0.5	·
COC(=O)c1cc(OC)c(OC)cc1NS(=O)(=O)c1c(Cl)cc(Cl)cc1Cl	·	-0.62
Cc1ccc(CN2CCc3nc(SCC(=O)NCCc4ccccc4)[nH]c(=O)c3C2)cc1	0.3	23

SMILES	AID504770	Ba CapD inh
CC(=O)N(C)c1ccc(C(O)(C(F)(F)F)C(F)(F)F)cc1	-0.8	-2.7
COc1cccc(NC(=O)C(C#N)Cc2cccs2)c1 (configuration not stated)	1.1	·
COC(=O)C1=CN(Cc2ccc(OC)cc2)C=C(C(=O)OC)C1c1ccc(OC)cc1	-0.9	-0.7
Oc1ccccc1OCc1ccc2ccccc2n1	-1.2	·
CC[C@H]1CN2CCC3(C(=O)Nc4ccccc43)C2C[C@@H]1/C(=C\OC)C(=O)OC (some centres not stated)	0.45	0.2
COC(=O)C1=C(C)N=c2s/c(=C\c3ccc(OC(C)=O)cc3OC(C)=O)c(=O)n2C1c1ccccc1 (configuration not stated)	·	-0.12
O=C(O)C1(c2ccccc2)CCN(S(=O)(=O)c2ccccc2)CC1	-0.8	·
Cc1cc2nc3c(=O)[nH]c(=O)nc-3n(CC(O)C(O)C(O)CO)c2cc1C (configuration not stated)	-0.15	-0.095&-0.36
CCOC(=O)Cc1csc(-c2ccc(F)cc2F)n1	-0.55	-0.85
Cc1nn(C(=O)c2ccccc2)c(C)c1CS(=O)(=O)c1ccccc1	·	-0.36
CCCN1C2CCCC1CC(NC(=O)c1ccccc1C)C2 (configuration not stated)	-0.65	·
Cc1cc(C)nc(Nc2nc(-c3ccccc3)c3ccc(Cl)cc3n2)n1	·	2.9
CSCCn1c(-c2ccccc2)cc(C(=O)NCc2ccco2)c1C	0.95	0.005
COc1ccc2[nH]c3c(=O)[nH]cnc3c2c1	-0.5	52
Cc1cc(C(F)(F)F)nc(SCCNC(=O)Cc2ccc(F)cc2)n1	1.6	0.09
O=C(CC(c1ccccc1)c1ccccc1)NCCN1CCOCC1	0.9	0.29
Cc1cc(C)n2ncc(C(=O)Nc3cccc(C(F)(F)F)c3)c2n1	-0.3	·
COc1cc2c(c(OC)c1OC)-c1ccc(O)c(=O)cc1[C@@H](NC(=O)C(F)(F)F)CC2	0.05	-2.7
O=C1C2=C(Nc3ccccc3SC2c2cccc(O)c2)c2ccccc21 (configuration not stated)	·	-0.075
CCOC(=O)c1c(NC(=O)C(C)Sc2nnc(CNC(=O)c3cccs3)n2C)sc2c1CCCC2 (configuration not stated)	·	-0.32
CCCCCc1c(C)c(C#N)c2nc3ccccc3n2c1-n1ccnc1	-0.5	·
N#Cc1c(SCC(=O)N2CCCCC2)nsc1SCC(=O)N1CCCCC1	0.4	-0.065
O=C1Nc2ccccc2S/C1=C\C(=O)N1CCN(c2ccccc2)CC1	0.9	0.9
N#CCCn1c2ccccc2c2nc3ccccc3nc21	·	2
COc1cc(C)c(C(C)C)cc1S(=O)(=O)NCCCn1ccnc1	0.05	-0.3

SMILES	AID504770	Ba CapD inh
O=C(Nc1ccc(N2CCOCC2)cc1)c1ncn[nH]1	0.2	·
CC1CCCN(S(=O)(=O)c2cc(Cl)ccc2Cl)C1 (configuration not stated)	·	0.26
COCC(C)NC(=O)c1ccccc1OC(C)=O (configuration not stated)	1.5	22
O=C(CCCCC(=O)NCC(=O)ON1C(=O)CCC1=O)NCC(=O)ON1C(=O)CCC1=O	·	-0.065
CC1CCCC(C)N1C(=O)c1cc(-c2ccc(Cl)cc2)on1 (configuration not stated)	-0.05	-0.005
CC(C)=CC(=O)Oc1ccc(Br)cc1	1.9	0.045
COc1ccc(CN2CCN(S(=O)(=O)c3cccc(Cl)c3Cl)CC2)cc1F	·	-0.03
COc1ccc(S(N)(=O)=O)cc1C(=O)OCc1cn2cc(Cl)ccc2n1	0.05	·
C/C(N)=C(/C#N)C(=O)COc1ccccc1F	-0.35	·
CCCCNC(=O)c1cc(S(=O)(=O)N(C)C)oc1C	-0.8	-0.07
Cc1ccc(-c2cc(N)n(-c3ccccc3)n2)cc1	-0.25	0.85
O=C(CSc1nnc(-c2ccncc2)n1-c1ccccc1)NC(=O)NC1CCCC1	-0.35	·
O=c1[nH]c2ccc(NC(=S)Nc3ccccc3)cc2[nH]1	0.15	0.26
N#Cc1ccc(Cl)cc1N=Cc1ccc2ncccc2c1	-0.25	2.4
COc1ccc(N2CCN(CCNc3ncnc4onc(C)c34)CC2)cc1	-0.8	0.005
NC(=O)CSc1c(-c2ccccc2)[nH]c2ccccc12	-1.1	0.34
CCN(CC)S(=O)(=O)c1ccc2c(c1)nc(CCC(=O)OCCOc1ccc(C)cc1)n2C	-0.95	·
CCCCSC1=C(C#N)C(=O)NC(CO)S1 (configuration not stated)	-1.4	-1.4
CCC(O)(c1ccccc1)C(CN1CCOCC1)c1ccccc1 (configuration not stated)	0.55	0.11
CCC(=O)N1C(c2ccccc2)=C(C)Sc2nnc(C)n21	-0.45	·
Cc1csc(NC(=O)C(C)(C)Br)n1	-0.6	-0.26
CC(C)CC(NC(=O)C(Cc1ccccc1)NC(=O)CNC(=O)CNC(=O)C(N)Cc1ccc(O)cc1)C(=O)O (configuration not stated)	·	-0.59
O=C(O)C1CCCN(S(=O)(=O)c2ccccc2)C1 (configuration not stated)	0.25	0.31
Cn1c(=O)c([N+](=O)[O-])c(Nc2ccc(Cl)cc2)c2ccccc21	·	-0.15
COc1cccc(C(=O)NC(C)C(c2cccs2)N2CCOCC2)c1 (configuration not stated)	-0.25	-0.73

SMILES	AID504770	Ba CapD inh
CSc1nc(NCCCO)c(C#N)c(-c2ccccc2)n1	0.8	4
CCOC(=O)C(Cc1ccccc1)C(=O)Nc1ccc(OC)cc1 (configuration not stated)	-0.25	0.26
CCOC(=O)c1ccc(C[N+]2(C)CCOCC2)o1	-0.8	-0.05
COC(=O)c1sccc1OC(=O)c1nn(-c2ccccc2)nc1C	-0.5	-0.17
Cc1c(Sc2ccc(Cl)cc2)cnn1CCC#N	3.3	-1.7
O=C(/C=C/c1cccs1)N1CCN(C(=O)/C=C/c2cccs2)CC1	1.9	-0.28
CCSc1ccc2c3c(cccc13)C(=O)N(Cc1ccccc1)C2=O	·	1
O=C(Nc1nccs1)c1ccc(F)cc1	0.6	0.62
CCCc1ccc(OCc2ccc(C(=O)NCc3cccnc3)o2)c(OC)c1	-0.5	1.2
O=C(Nc1nc2c(s1)CCc1ccccc1-2)c1ccc([N+](=O)[O-])cc1	·	-0.1
COc1cc([N+](=O)[O-])ccc1N1C(=O)C2C3C=CC(CC3)C2C1=O (configuration not stated)	·	1.6
CNS(=O)(=O)c1cc(C)ccc1OC	1.4	0.02
CC(=O)Nc1ccc(N=Cc2ccc(OC(=O)c3cccnc3)cc2)cc1	0.45	0.32
C=C(C)CN1CCN(C(c2ccccc2)c2ccccc2)CC1	-0.5	0.11
CC1=CC(C)(C)NC(=O)N1c1cccc(F)c1	0.1	·
CCCCOc1cc(C(=O)NCCN(CC)CC)c2ccccc2n1	0.05	1.1&-0.37
CCOc1ccc(S(=O)(=O)Nc2ccc(Cl)c(C(F)(F)F)c2)c2cccnc12	·	0.44
CN(C)/C=C/c1snc(Sc2ncc(C(F)(F)F)cc2Cl)c1C#N	·	-0.8
COc1cccc(CNc2ccc(-c3nc4ncccc4o3)cc2)c1OC	-0.35	·
CC(C)C(=O)Nc1nc(-c2ccc(Br)s2)cs1	-0.8	-0.15
Cc1ccc2occ(CC(=O)Nc3nnc(C)s3)c2c1	0.05	0.34
O=C(O)CCSc1ccccc1	-0.75	-0.005
NNC(=O)c1ccc(Oc2ccc(Cl)cc2)nc1	-0.1	0.07
CSCCC(C(=O)O)N1C(=O)/C(=C/c2ccc(C)cc2)SC1=S (configuration not stated)	-1	-2.3
COC(=O)c1ccccc1NC(=O)Nc1ccc(C(=O)N2CCCC2)cc1	-0.15	4

# Entries of single compounds as entered above. Order of values: AID504770, Ba CapD inh
# Record of CN(C)/C=C/c1snc(Sc2ncc(C(F)(F)F)cc2Cl)c1C#N : ·, -0.8
# Record of O=C(/C=C/c1cccs1)N1CCN(C(=O)/C=C/c2cccs2)CC1 : 1.9, -0.28
# Record of CC(C)C(=O)Nc1nc(-c2ccc(Br)s2)cs1 : -0.8, -0.15

# (listing goes on)
SMILES	AID504770	Ba CapD inh
CCOC(=O)c1sc(NCc2ccco2)c(-c2nc3ccccc3s2)c1N	0.4	·
CC(C)CNCCCN1CCOCC1	0.55	·
CCOC(=O)c1[nH]ncc1-c1ccc(Cl)cc1Cl	-0.35	-0.55
CCOC(=O)N1CCN(S(=O)(=O)c2ccccc2)CC1	0.25	-0.41
Cc1cc(C)n2c(Br)c(CN3CCC4(CC3)OCCO4)nc2n1	-1.5	27
OCCN1CCN(c2cc(C(F)(F)F)nc3c(F)cccc23)CC1	·	-0.72
COc1ccc(CCN2CC(C(=O)N(C)C)CC2=O)cc1OC (configuration not stated)	0	·
CCOC(=O)c1oc2ccccc2c1COC(=O)/C=C/c1cccs1	0.3	·
O=C(Nc1ccc(Oc2ccccc2)cc1)c1ccccn1	-1	·
CC1Oc2ccccc2OC1=O (configuration not stated)	0.3	0.22
CSc1ccc(NC(=O)C(C)N2CCN(C)CC2)cc1 (configuration not stated)	-0.25	·
Cc1ccc2oc(-c3ccc4c(c3)C(=O)N(C)C4=O)nc2c1	1.2	2.5
CCCN1CCN(C(=S)Nc2ccc(S(N)(=O)=O)cc2)CC1	-0.8	-0.13
CCN(CC)c1c(S(=O)(=O)c2ccccc2)cnc2cc3c(cc12)OCCO3	-0.6	·
COC(=O)CC(C#N)(c1ccccc1)c1cccc(F)c1C#N (configuration not stated)	0.2	-0.39
Cc1ccc(Cc2c(C)nc3c(C(=O)O)cnn3c2C)cc1	-0.55	·
O=CN1CCN(S(=O)(=O)c2ccc(S(=O)(=O)NC3CC3)cc2)CC1	-0.8	·
Cc1ccccc1CCN(Cc1cc2c(C)ccc(C)c2[nH]c1=O)C(=O)c1cnccn1	-0.85	·
CCN(CC)S(=O)(=O)c1cccc(C(=O)OCc2nnc(-c3ccccc3)o2)c1	-1.8	·
CCOC(=O)c1cc(C)n(-c2ccc(I)cc2)c1C	-0.35	-0.4
